Assay outcomes deposited in PubChem by National Center for Advancing Translational Sciences (NCATS).
nsP2pro primary – blocks chikungunya virus nsP2 protease peptide cleavage. FRET peptide cleavage, nsP2pro, fluorescence 1 h. AID 1964107. actives 1.1% (n = 31,000). Q8JUX6. Potency, µM (series often up to 24.9 µM), for the others: at the highest dose activity change, negative = inhibition, actives largely listed as inhibitors; active means well fitted inhibition curve with a large enough effect; inconclusive means small, poorly fitted or top-dose-only effect; inactive means no such curve, though single readings can be large or run the other way; further: nearly all actives have a fitted effect of over 60% in size; a reference inhibitor and vehicle were the controls
Target sequence (Q8JUX6 whole entry, looked up): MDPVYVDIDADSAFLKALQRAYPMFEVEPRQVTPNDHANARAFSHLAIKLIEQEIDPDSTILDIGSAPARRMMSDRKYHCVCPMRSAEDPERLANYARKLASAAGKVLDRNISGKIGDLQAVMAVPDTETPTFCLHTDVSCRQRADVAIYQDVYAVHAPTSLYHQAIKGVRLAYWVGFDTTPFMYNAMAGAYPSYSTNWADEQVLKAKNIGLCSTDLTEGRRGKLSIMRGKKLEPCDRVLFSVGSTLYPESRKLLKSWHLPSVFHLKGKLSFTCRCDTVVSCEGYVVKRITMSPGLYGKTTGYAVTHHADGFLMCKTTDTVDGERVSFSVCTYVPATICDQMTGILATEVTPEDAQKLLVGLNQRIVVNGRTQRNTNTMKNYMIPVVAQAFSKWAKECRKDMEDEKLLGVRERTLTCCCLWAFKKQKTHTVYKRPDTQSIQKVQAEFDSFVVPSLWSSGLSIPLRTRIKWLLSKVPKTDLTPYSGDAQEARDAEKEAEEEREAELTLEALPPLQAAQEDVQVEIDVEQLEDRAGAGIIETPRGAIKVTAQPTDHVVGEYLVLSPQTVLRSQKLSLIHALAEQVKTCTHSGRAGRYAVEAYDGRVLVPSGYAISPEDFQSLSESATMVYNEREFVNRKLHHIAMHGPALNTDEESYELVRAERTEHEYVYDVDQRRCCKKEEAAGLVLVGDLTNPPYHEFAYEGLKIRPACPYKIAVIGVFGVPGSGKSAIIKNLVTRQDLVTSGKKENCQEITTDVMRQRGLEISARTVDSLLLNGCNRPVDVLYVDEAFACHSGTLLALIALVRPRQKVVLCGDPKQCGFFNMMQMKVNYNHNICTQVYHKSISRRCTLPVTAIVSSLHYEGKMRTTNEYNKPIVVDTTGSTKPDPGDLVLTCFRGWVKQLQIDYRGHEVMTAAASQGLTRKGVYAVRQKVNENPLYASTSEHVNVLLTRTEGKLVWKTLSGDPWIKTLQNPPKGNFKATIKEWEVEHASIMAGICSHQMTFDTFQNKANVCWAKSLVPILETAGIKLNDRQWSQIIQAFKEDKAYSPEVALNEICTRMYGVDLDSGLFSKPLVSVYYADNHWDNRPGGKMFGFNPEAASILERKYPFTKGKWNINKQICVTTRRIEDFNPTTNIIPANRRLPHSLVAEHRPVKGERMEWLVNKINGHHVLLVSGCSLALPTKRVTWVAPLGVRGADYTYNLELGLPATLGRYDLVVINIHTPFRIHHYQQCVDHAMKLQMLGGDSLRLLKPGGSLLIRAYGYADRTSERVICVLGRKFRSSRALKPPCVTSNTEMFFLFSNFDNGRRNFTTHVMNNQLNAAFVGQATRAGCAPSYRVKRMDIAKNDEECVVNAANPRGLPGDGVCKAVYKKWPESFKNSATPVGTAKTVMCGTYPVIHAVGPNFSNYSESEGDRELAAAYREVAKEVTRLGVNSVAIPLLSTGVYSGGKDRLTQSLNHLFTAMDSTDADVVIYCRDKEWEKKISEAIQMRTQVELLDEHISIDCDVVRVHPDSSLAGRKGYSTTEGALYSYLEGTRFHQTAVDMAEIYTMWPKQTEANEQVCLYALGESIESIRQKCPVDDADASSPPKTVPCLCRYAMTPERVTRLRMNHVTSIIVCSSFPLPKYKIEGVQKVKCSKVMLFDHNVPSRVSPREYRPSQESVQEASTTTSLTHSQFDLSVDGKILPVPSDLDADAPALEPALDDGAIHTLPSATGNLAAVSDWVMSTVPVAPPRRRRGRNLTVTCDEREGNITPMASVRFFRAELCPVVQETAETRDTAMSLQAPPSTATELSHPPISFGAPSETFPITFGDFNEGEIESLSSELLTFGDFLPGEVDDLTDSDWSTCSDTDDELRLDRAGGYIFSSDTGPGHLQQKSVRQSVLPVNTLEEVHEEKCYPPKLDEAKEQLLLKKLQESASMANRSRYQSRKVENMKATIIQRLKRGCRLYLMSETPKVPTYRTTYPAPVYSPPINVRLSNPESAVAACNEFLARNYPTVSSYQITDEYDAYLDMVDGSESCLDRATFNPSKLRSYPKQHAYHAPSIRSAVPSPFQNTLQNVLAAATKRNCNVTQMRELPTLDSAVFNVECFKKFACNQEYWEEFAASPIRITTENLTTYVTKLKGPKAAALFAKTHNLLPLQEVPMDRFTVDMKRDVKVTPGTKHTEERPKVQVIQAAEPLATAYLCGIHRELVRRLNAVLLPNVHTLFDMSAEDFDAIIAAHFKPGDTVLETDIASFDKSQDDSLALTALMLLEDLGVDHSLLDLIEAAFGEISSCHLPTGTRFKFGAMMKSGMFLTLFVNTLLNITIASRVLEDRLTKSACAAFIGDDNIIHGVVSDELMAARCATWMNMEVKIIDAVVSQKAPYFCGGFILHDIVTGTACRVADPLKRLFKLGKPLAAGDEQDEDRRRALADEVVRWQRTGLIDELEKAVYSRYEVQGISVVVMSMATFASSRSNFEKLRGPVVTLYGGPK
Numbers without * were called inactive; i = inactive; ? = inconclusive; & = joins results of further samples; ! = not confirmed by another sample; [ ] = remark or other dose. On the % scale 0 is the no-effect control and ±100 the full control effect; potency means the concentration at half of the fitted maximal effect.

| canonical_smiles | nsP2pro primary |
| --- | --- |
| C=C[C@H]1[C@H](O[C@@H]2O[C@H](CO)[C@@H](O)[C@H](O)[C@H]2O)OC=C(C(=O)OC)[C@H]1CCOC(=O)c1cc(O)c(O)c(O)c1 | 25%[10 µM] |
| C[C@@H]1CC[C@H]2C(C)(C)[C@H](O)[C@H](O)C[C@]2(C)[C@@]12Cc1c(O)cc3c(c1O2)CNC3=O | -15% |
| Cc1ccc(CCNC(=O)C2CC(=O)N(CCc3ccc(C)cc3)C2)cc1 (configuration not stated) | -11% |
| CCn1c(=O)cc(OCC(=O)NCc2ccccc2OC)c2ccccc21 | -7% |
| COC1C(=O)CCC2(CO2)C1(O)C1(C)OC1CC=C(C)C (configuration not stated) | 65% |
| O=C(CC1CCCC1)N1C[C@@H](CO)[C@@H]2Oc3ccc(Cl)cc3[C@@H]21 | -3% |
| CC(=O)NC[C@H]1C[C@@H]2CCN1C[C@@H]2c1cc(-c2ccc3ccccc3c2)nn1C | i |
| Cc1ccc(-c2ccc(=O)n(CC(=O)NCCc3ncc[nH]3)n2)cc1 | i |
| CC(=O)Nc1ccc(C(=O)CSc2nnc3ccc4ccccc4n23)cc1 | -23% |
| Cc1cc(C)n2ncc(C(=O)NCc3ccco3)c2n1 | ? |
| c1ccc(-c2cc3ncc4c(n3n2)-c2ccccc2OC4)cc1 | -27% |
| O=C(COc1ccccc1-c1nnc(-c2ccccc2)o1)Nc1ccc(Br)cc1F | -14% |
| CC1(C)Cc2nc(C(C)(C)C)ncc2C(NC(=O)CCCN2CCCC2=O)C1 (configuration not stated) | 2% |
| O=C(Nc1ccc(Cl)c(C(F)(F)F)c1)Nc1nnc(-c2cccnc2)s1 | -2% |
| O=c1cc(N2CCOCC2)oc2c(Nc3ccccn3)nccc12 | i |
| COCCNC(=O)[C@@H]1C[C@H](Oc2ccccc2)CN1C(=O)c1cnccn1 | 2% |
| O=C(CCC1CCCC1)NCc1nnc2cc(-c3nc(C4CC4)no3)ccn12 | i |
| O=C(O)c1cccc(-n2cccc2)c1 | i |
| Clc1cc(NC2CCCCC2)n2nccc2n1 | 0%[39.2 µM] |
| CC(=O)Nc1sc2c(c1-c1nc3ccccc3s1)CCN(C(=O)OC(C)(C)C)C2 | ? |
| O=C(NCc1nc(-c2cccc(F)c2)c(-c2ccccn2)[nH]1)C1CCOC1 (configuration not stated) | i |
| c1ccc(Nc2cc3c(cn2)NCCN(Cc2cccs2)C3)cc1 | i |
| COc1ccc(-c2noc(-c3nc(-c4ccc(N(C)C)cc4)no3)n2)cc1OC | 3% |
| C[C@]1(CO)[C@H]2Cc3sc(NC(=O)c4cccs4)nc3[C@@H](CC(=O)O)[C@]2(C)CC[C@H]1O | -17% |
| COc1ccc(N(CC(=O)Nc2cc(Cl)ccc2C)S(=O)(=O)c2c(C)noc2C)cc1 | -12% |
| Cn1c(=O)[nH]cc(CC(=O)N2C[C@H](C3CC3)[C@@H](N)C2)c1=O | -8% |
| CCSc1ncc(Cl)c(C(=O)Nc2ccc(S(=O)(=O)Nc3ncccn3)cc2)n1 | -24% |
| CCCn1c(C)cnc1C1CCN(S(=O)(=O)c2cn(C)cn2)C1 (configuration not stated) | i |
| CCCCN1C(=O)c2ccccc2NC1c1ccc(OC)c(COc2c(C)cc(NC(C)=O)cc2C)c1 (configuration not stated) | 2% |
| Cc1nocc1C(=O)N1C[C@@H](CO)[C@H](c2ccccn2)C1 | -4% |
| O=C(NCc1nnc(-c2cc3ccccc3[nH]2)s1)c1ccccc1 | -1% |
| O=C(OCC#CCSc1nnc(-c2c[nH]c3ccccc23)o1)c1ccc(F)cc1 | i |
| Cc1ccc(Cl)cc1N1CCN(C(=O)c2cccn2-c2nnc(N3CCCC3)s2)CC1 | -16% |
| COC(=O)N1CCC(n2ncc3c(N4CCOCC4)nc(-c4ccc(NC(=O)NC5CC5)cc4)nc32)CC1 | 7% |
| O=C(CN1C(=O)CNC1=O)N[C@H](c1ccc2c(c1)CCO2)C1CC(O)C1 (some centres not stated) | -5% |
| N#CC(CCCN1CCC(O)(c2ccc(Cl)cc2)CC1)(c1ccccc1)c1ccccc1 | 23% |
| CCCCCCCCCCCCCCCCCC(=O)[O][Al] | -7%[2.68 µM] |
| CCn1ccc2cc(S(=O)(=O)N3CCC(C(=O)NCc4cccc(Cl)c4)CC3)ccc21 | -15% |
| CCOc1ccc(-n2c(SCC(=O)N3CCOCC3)nc3c([nH]c4ccccc43)c2=O)cc1 | -21% |
| C=C1CC2[C@]3(C)C(=C(O)C(=O)[C@@]2(C)[C@]2(C(=O)OC)C(=O)C(C)OC(=O)[C@@]12C)C(C)(C)C(=O)CC3O (some centres not stated) | ? |
| CN(Cc1ccccc1)Cc1cc(C[C@H]2CNCC[C@H]2CC(=O)NCc2cccs2)no1 | -17% |
| CC1(C)CC[C@]2(C(=O)O[C@@H]3O[C@H](CO)[C@@H](O)[C@H](O)[C@H]3O)CC[C@]3(C)C(=CCC4[C@@]5(C)CC[C@H](O[C@@H]6O[C@H](C(=O)O)[C@@H](O)[C@H](O)[C@H]6O)C(C)(C)C5CC[C@]43C)C2C1 (some centres not stated) | ? |
| O=C1CCN(Cc2cccc(F)c2)CCCCCCN1 | -1% |
| COc1ccc(-c2ccc(CNc3ccc4[nH]c(=O)[nH]c4c3)o2)cc1Cl | -26% |
| CCOc1ccc(CCNC(=O)C2COc3ccccc3O2)cc1OCC (configuration not stated) | -9% |
| COc1ccccc1CCNC(=O)C1CCN(c2nnc(C)c3c(C)n(-c4ccc(C)cc4)nc23)CC1 | -24% |
| Cc1ccn2c(Nc3ccccc3C)c(-c3ccncc3)nc2c1 | -4% |
| C=CC/C=C\C/C=C\CCCCCCCc1cc(O)cc(O)c1 | -7% |
| COc1cccc(-n2cnc3cc(C(=O)N4CCCCC4)ccc32)c1 | -21% |
| CCN1CCCN(C(=O)c2cccnc2)CC12CCOCC2 | -1% |

(list continues)
| canonical_smiles | nsP2pro primary |
| --- | --- |
| CCCNC(=O)C(Cc1ccccc1)NS(=O)(=O)c1ccc2c(c1)c(=O)n(C)c(=O)n2C (configuration not stated) | -16% |
| CC(C)(C)C(=O)Oc1ccc(S(=O)(=O)Nc2ccccc2C(=O)NCC(=O)O)cc1 | -12%&-2%&-15% |
| CCN(CC)Cc1cc(Nc2ccnc3cc(Cl)ccc23)ccc1O | ? |
| Cc1cc(C)n(CCC(=O)NCC2CCN(c3cc(-c4ccc(Cl)cc4)[nH]n3)CC2)n1 | i |
| CC(=O)NC1(C)CN(Cc2ccc(-c3cccc(F)c3)s2)C1 | i |
| OC(COc1ccccc1CNCC1CCOCC1)CN1CCSCC1 (configuration not stated) | 2% |
| O=C(NCC1CC1)C1CCCN(C2CCN(Cc3ccncc3)CC2)C1 (configuration not stated) | 1% |
| CCCc1cc(C)[nH]c(=O)c1CNC(=O)c1cc(-c2ccnc(N3CCN(C)CC3)c2)cc2c1cnn2C(C)C | 81%[activator] |
| Cc1ccc(NC(=O)C2CCC(CNS(=O)(=O)c3ccc4c(c3)C(C)(C)C(=O)N4C)CC2)cc1 (configuration not stated) | -18% |
| CC1=C(O)C(=O)C=C2C1=CC=C1[C@@]2(C)CC[C@@]2(C)[C@@H]3C[C@](C)(C(=O)O)CC[C@]3(C)CC[C@]12C | 4.4µM*! |
| Cn1cc(-c2ccncc2)cc1C(=O)N1CCN(c2ccc(F)cc2)CC1 | i |
| COC(=O)[C@H]1[C@@H](OC(=O)c2ccccc2)C[C@@H]2CC[C@H]1N2C | 10%[39.2 µM] |
| Cc1ccc(N2CC(NC(=O)C3CCCC3)CC2=O)cc1C (configuration not stated) | -16% |
| O=C(Nc1ccc(Oc2ccccc2)cc1)O[C@@H]1CO[C@H]2[C@@H]1OC[C@@H]2n1nnnc1-c1ccc(-c2ccccc2)cc1 | i |
| CC1CC(OC(=O)C(O)c2ccccc2)CC(C)(C)C1 (configuration not stated) | -8%&-17% |
| COc1cc(NS(=O)(=O)c2ccc(C)cc2)ccc1C(=O)Nc1nc(-c2ccccc2)cs1 | 4% |
| Cc1ccc(C(=O)Nc2noc3ccccc23)cc1 | -4% |
| O=S(=O)(c1ccc2c(c1)OCCO2)N1CCN(S(=O)(=O)c2ccc(Cl)cc2F)CC1 | -5% |
| Cc1cc(C)cc(-n2ccnc2SCC(=O)Nc2nc3ccccc3s2)c1 | -10% |
| Cn1nnnc1C1CCCN(C(=O)c2ccc(F)cc2)C1 (configuration not stated) | -1% |
| CO[C@@H]1CC(OC2CCC3(C)C(CCC45CCC(C6=CC(=O)OC6)C(C)(CCC43)C5=O)C2)O[C@H](C)[C@@H]1O[C@@H]1O[C@H](CO[C@@H]2O[C@H](CO)[C@@H](O)[C@H](O)[C@H]2O)[C@@H](O)[C@H](O)[C@H]1O (some centres not stated) | 15%[5.1 µM] |
| O=C1CCN(Cc2ccncc2)CCCC(C(=O)N2CCCC2)CCN1 (configuration not stated) | -8% |
| Cc1ccc2nc3sc(C(=O)NCCN4CCOCC4)cc3cc2c1 | 1% |
| Cn1cccc1CN1CC(Oc2ccc(F)cc2F)C1 | -23%[39.2 µM] |
| Fc1ccccc1CN1CCC[C@H]1c1nc(-c2ccnc(N3CCOCC3)c2)no1 | i |
| O=C(OCc1ccccc1)c1ccc(O)cc1 | -1% |
| Cc1occc(=O)c1O[C@@H]1O[C@H](CO[C@@H]2OC[C@](O)(CO)[C@H]2O)[C@@H](O)[C@H](O)[C@H]1O | -9%[10 µM] |
| CN(C)c1ccc(CN(Cc2ccco2)C(=O)c2ccc(F)cc2)cc1 | -27% |
| O=C(C1CCCC1)N1CC2(CCN(Cc3ccccn3)C2)OCc2ccccc21 (configuration not stated) | ? |
| N#Cc1c(-c2cccc(C(F)(F)F)c2)no[n+]1[O-] | 4% |

Reformatted: 3 of the compounds above
Compound: Fc1ccccc1CN1CCC[C@H]1c1nc(-c2ccnc(N3CCOCC3)c2)no1
  nsP2pro primary = i

Compound: O=C(OCc1ccccc1)c1ccc(O)cc1
  nsP2pro primary = -1%

Compound: Cc1occc(=O)c1O[C@@H]1O[C@H](CO[C@@H]2OC[C@](O)(CO)[C@H]2O)[C@@H](O)[C@H](O)[C@H]1O
  nsP2pro primary = -9%[10 µM]

(cont.)
| canonical_smiles | nsP2pro primary |
| --- | --- |
| CCOc1ccc(NC(C)=O)cc1 | -3% |
| COc1ccc(CCNC(=O)c2ccc3c(Cl)c4c(nc3c2)CCCC4)c(OC)c1 | -2% |
| O=C1NC(c2ccccc2)(c2ccccc2)C(=O)N1COP(=O)(O)O | -2% |
| Cc1noc(C)c1C(=O)N1CCN(c2ccc(C=O)cc2)C(=O)C1 | -9% |
| CCc1ccc(NC(=O)Cn2ccn(Cc3ccccc3OC)c(=O)c2=O)cc1 | -16% |
| C/C1=C\[C@@H](C)C[C@@H](C)[C@@H](Cc2cnco2)OC(=O)/C(C)=C/[C@@H](C)C[C@@H](C)[C@@H](Cc2cnco2)OC1=O | 5%[10 µM] |
| Cc1cc(C)nc(NC(=S)N2CCN(c3ccc(F)cc3F)CC2)c1 | -10%&3% |
| Cc1cnc(C(=O)N2CC[C@H](CO)[C@H](NC(=O)C3CC3)C2)cn1 | -8% |
| COCCn1c(=O)n([C@H]2CCCN(C(=O)NCCc3ccccc3)C2)c2ncccc21 | i |
| COc1cc(C)c(-c2nc(CN3CCCC(CN)C3)c(C)o2)cc1C (configuration not stated) | -4% |
| Cc1c(Cl)cccc1-c1ccc(CNCCSc2nnnn2-c2ccccc2)o1 | ? |
| COc1cc(F)c(S(=O)(=O)N2CCN(S(=O)(=O)c3ccc4c(c3)OCCO4)CC2)c(F)c1 | -2% |
| O=S(=O)(Nc1nc2ccccc2s1)c1ccc(NCc2ccc(Br)cc2O)cc1 | i |
| CCCCN(Cc1ccccc1)C(=O)CN(C)S(=O)(=O)c1ccc2c(c1)c(=O)n(C)c(=O)n2C | -10% |
| c1ccc(CN(Cc2ccccc2)Cc2nnc(-c3cc4ccccc4[nH]3)s2)cc1 | 8.9µM* |
| Cc1ccc(C)c(N2CCN(Cc3csc(C)c3)CC2)c1 | ? |
| CC(=O)N1CCCc2cc(S(=O)(=O)N3CCCC(C(=O)N4CCN(c5cc(C)ccc5C)CC4)C3)ccc21 (configuration not stated) | -19% |
| Fc1ccccc1-c1nnc2n1N=C(c1ccc(OC(F)F)c(OCC3CC3)c1)CS2 | -8% |
| CC(C)[C@H]1C(=O)N2CCC[C@H]2[C@]2(O)O[C@](NC(=O)[C@@H]3C[C@@H]4c5cccc6[nH]cc(c56)C[C@H]4N(C)C3)(C(C)C)C(=O)N12 | -3% |
| O=C(c1ccccn1)N1CCC(Nc2cccnc2)C1 (configuration not stated) | 2% |

Reprinted from the listing, 3 compounds:
| canonical_smiles | nsP2pro primary |
| --- | --- |
| c1ccc(CN(Cc2ccccc2)Cc2nnc(-c3cc4ccccc4[nH]3)s2)cc1 | 8.9µM* |
| Cc1ccc(C)c(N2CCN(Cc3csc(C)c3)CC2)c1 | ? |
| CC(=O)N1CCCc2cc(S(=O)(=O)N3CCCC(C(=O)N4CCN(c5cc(C)ccc5C)CC4)C3)ccc21 (configuration not stated) | -19% |

New compounds follow
| canonical_smiles | nsP2pro primary |
| --- | --- |
| Cc1ccc2nc(COc3cccc(NC(=O)COc4ccccc4F)c3)cc(=O)n2c1 | -11% |
| CCN(CC)c1ccc(NC(=O)CN2CCN(S(=O)(=O)c3cc(Cl)ccc3OC)CC2)cc1 | -19% |
| COc1cccc(NC(=O)Cn2c(=O)c3cccn3c3ccc(F)cc32)c1 | -17% |
| COc1ccc(C2c3c(ncn(CCCc4ccccc4)c3=N)Oc3ccc4ccccc4c32)cc1OC (configuration not stated) | i |
| CCCNC(=O)N(C1CCOCC1)C1CCN(C(=O)c2nn(C)c3ccccc23)CC1 | -5% |
| Cc1nc(-c2cccs2)cc([C@H]2CN3CC[C@H]2C[C@@H]3COC(=O)Nc2ccc(C(C)C)cc2)n1 | i |
| COc1c2c(cc3c1OCO3)CCN(C)C2 | -17% |
| CC1(C)[C@@H](O)CC[C@]2(C)[C@H]3CC=C4[C@@H]5C[C@](C)(C(=O)O)CC[C@]5(C)CC[C@@]4(C)[C@]3(C)CC[C@@H]12 | 22% |

These rows are one share of the data; rates above refer to the full screens.
